PI5P4Ka inh – PI5P4K alpha (human) kinase inhibition. P48426. PI5P4Kalpha enzyme, ADP-Glo luminescence, 60 min; stronger effect = lower value. max response, %. 330,000 tested, 1.2% active; active means max response of -50% or lower; inconclusive means between -30% and -50%; inactive means -30% or higher; further: value at the top dose of about 77 µM; on the % scale 0 is the no-effect control and ±100 the full control effect
Target sequence (P48426 whole entry, looked up): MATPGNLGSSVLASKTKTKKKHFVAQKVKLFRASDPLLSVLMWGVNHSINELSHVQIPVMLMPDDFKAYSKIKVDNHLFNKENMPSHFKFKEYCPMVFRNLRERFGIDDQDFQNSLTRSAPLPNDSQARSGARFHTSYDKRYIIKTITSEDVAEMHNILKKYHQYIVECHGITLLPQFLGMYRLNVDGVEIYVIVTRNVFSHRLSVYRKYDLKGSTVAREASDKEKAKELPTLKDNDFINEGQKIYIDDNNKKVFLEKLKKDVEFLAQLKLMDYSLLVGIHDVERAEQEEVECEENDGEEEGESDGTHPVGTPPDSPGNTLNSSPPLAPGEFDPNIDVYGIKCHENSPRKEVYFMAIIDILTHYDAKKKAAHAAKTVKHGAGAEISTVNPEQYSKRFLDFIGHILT
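Compounds were pin-transferred onto PI5P4Kalpha and substrate in HEPES pH 7.4 buffer with EGTA, CHAPS and 5% DMSO. ATP (5 microM final) started the reaction, which ran 60 minutes at room temperature before ADP-Glo detection.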
PLK1 PBD inh – PLK1 (human) polo-box domain binding inhibition. Potency, µM, for inactives: max response, negative = inhibition, actives largely listed as inhibitors. P53350. AID 720504. Plk1 PBD binding of FITC phosphopeptide, fluorescence polarization. 360,000 tested, 2.8% active; further: potency means the concentration at half of the fitted maximal effect; series mostly up to about 57 µM; on the % scale 0 is the no-effect control and ±100 the full control effect; nearly all actives have a fitted effect of over 65% in size
Mm-Cpn inhibitor – blocks the Methanococcus maripaludis chaperonin Mm-Cpn; Potency, µM (highest dose often 76.9 µM), for the others: at the highest dose activity, negative = inhibition, hits mostly inhibitors; purified Mm-Cpn ATPase, ADP Transcreener TR-FRET; 330,000 tested, 0.031% active; further: potency means the concentration at half of the fitted maximal effect; on the % scale 0 is the no-effect control and ±100 the full control effect; nearly all actives have a fitted effect of over 80% in size
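Reaction buffer contained 30 mM Tris pH 7.4, 100 mM KCl, 5 mM MgCl2 and 1 mM DTT. Mm-CPN (25 nM final) hydrolysed 10 uM ATP over 30 min at 37°C; ADP was read by HTRF.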
CCT chaperon mod – changes cytosolic chaperonin activity; purified chaperonin ATPase assay, HTRF ADP detection, 30 min; activity change, % (test concentration not listed), hits read low; 360,000 tested, 0.3% active; AID 651819; in the data active means activity change below about -30%; further: on the % scale 0 is the no-effect control and ±100 the full control effect
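We incubate TRiC, 40 or 20 nM final, with library compounds at 76 uM and 10 uM ATP for 30 min at 37 °C. ADP formed is detected with Transcreener HTRF reagents after 30 min at room temperature.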
EPAC1 ag – EPAC1 (human) agonism | O95398 | 360,000 tested, 0.073% active | Potency, µM (titrated, usually from 154 µM), for inactives: top-dose activation, most hits filed as activators | EPAC1 agonist qHTS, biochemical assay; response scale: 100% = response to 6.5 mM cAMP; further: potency means the concentration at half of the fitted maximal effect; nearly all actives have a fitted effect of over 60% in size
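Multi-concentration qHTS readout: loss of Rap1B-bound BODIPY-GDP fluorescence driven by 100 nM EPAC1 with excess GDP (50 uM), monitored kinetically at room temperature; agonist response expressed relative to 6.5 mM cAMP.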
EPAC2 antag – EPAC2 (human) antagonism; EPAC2 GEF exchange of Rap1B-BODIPY-GDP, fluorescence; Potency, µM (doses to about 114 µM), inactives show at the highest dose activity, negative = inhibition, actives largely listed as inhibitors; 360,000 tested, 0.18% active; further: potency means the concentration at half of the fitted maximal effect; on the % scale 0 is the no-effect control and ±100 the full control effect; nearly all actives have a fitted effect of over 45% in size; many of its hits are not listed in these tables
EPAC1 antagonist – blocks human EPAC1 exchange factor; AID 720709; Potency, µM (titrated, usually from 115 µM), for inactives: at the top dose activity change, negative = inhibition, most hits filed as inhibitors; O95398; EPAC1 GEF assay, Rap1b-BODIPY-GDP exchange fluorescence; 360,000 tested, 0.14% active;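 further: potency means the concentration at half of the fitted maximal effect; plate controls were vehicle for no effect and positive control for full effect; nearly all actives have a fitted effect of over 50% in size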
* = called active by the depositor; ? = inconclusive; · = not tested or not shown; [ ] = remark or other dose. Unless noted, the call rests on the fitted dose curve; in most records, active means well fitted curve in the direction sought with a large enough effect; inconclusive means small, poorly fitted or top-dose-only effect, or another doubt; inactive means no such curve, though single readings can be large; an effect the other way counts as inactive or inconclusive.

molecule,PI5P4Ka inh,PLK1 PBD inh,Mm-Cpn inhibitor,CCT chaperon mod,EPAC1 ag,EPAC2 antag,EPAC1 antagonist
CCOc1ccc(C(=O)CCN2CCCCCC2)cc1,-1,11µM*,0%,1.3,-1%,-4%[57.1 µM],5%
Cn1nccc1C(=O)NC(=S)Nc1sc2c(c1C#N)CCCCC2,2,?,-3%,-15,6%,0%,2%
O=C(Nc1nc2ccccc2[nH]1)c1ccccc1,1,-3%,-2%,1.0,0%,4%,0%
CN(CC(=O)Nc1ccc(Cl)cc1F)C1CCS(=O)(=O)C1 (stereo not given),1,-7%,-1%,-4.6,10%,0%,0%
O=C(Nc1ccc2c(c1)OCO2)c1noc2c1CCCCC2,·,3%,0%,1.9,9%,-2%,-1%
CCCCOc1ccc(C(=O)OCC(=O)N2CCCCCC2)cc1,0,2%,1%,-0.8,-3%,9%,-4%
COc1cc(C2C3=C(Nc4nc(N)[nH]c(=O)c42)c2ccccc2C3=O)ccc1O (stereo not given),-71*,-7%,0%,-2.7,9%,-2%,-20%
COc1cc(/C=C/C(=O)OCC(=O)N2CCN(S(=O)(=O)c3ccc(C)cc3C)CC2)ccc1O,-14,-1%,-6%,-1.1,0%,3%,-15%
CN(c1ccc(O)cc1)c1nc(O)c(C2=c3ccccc3=NC2=O)s1,-14,-15%,·,-2.8,-7%,-20%,?
CCNC(=S)N/N=C/c1ccc(C(=O)O)cc1,-16,3%,-1%,-7.8,-6%,3%,16%
O=C1[C@H]2[C@@H](C3CC3)N3C(=O)CN(CC4CC4)C(=O)[C@@]3(Cc3ccccc3)[C@H]2C(=O)N1c1ccccc1,9,-2%,2%,-0.7,-25%,-2%,0%
CCC(=O)c1ccc(OCCN2CCOCC2)cc1,1,-1%,1%,1.2,7%,-2%,1%
CC(=O)c1ccc(S(=O)(=O)NCC(=O)Nc2nc3ccccc3[nH]2)cc1,?,-26%,-15%,-1.1,-3%,7%,17%
CC(C)(C)NCCOCCOc1ccc(Cl)cc1C(C)(C)C,4,-20%,0%,-0.6,3%,-3%,3%
O=C(CSc1ccc(-c2ccco2)nn1)Nc1ccccc1,-27,-25%,0%,-0.7,11%,1%,-6%
CC(C)C1Cc2c(sc(NC(=S)NC(=O)c3ccccc3)c2C#N)CO1 (stereo not given),4,24µM*,0%,-1.2,-3%,16%,5%
CC(C)c1nc2n[nH]c(N)c2c2c1CCCC2,-1,-4%,0%,2.4,-2%,-7%,-14%
COc1ccc(Cl)cc1NC(=O)CN(C)C1CCS(=O)(=O)C1 (stereo not given),-5,-6%,1%,-0.3,-1%,14%,-11%
C=CCn1c(SCC(N)=O)nc2scc(-c3ccc(C)o3)c2c1=O,5,-24%,-2%,0.0,3%,0%,-21%
O=S(=O)(c1ccc2ccccc2c1)N1CCN(C2Cc3ccccc3C2)CC1,10,0%,-4%,0.6,8%,24%,-2%
COc1ccc(S(=O)(=O)CCC(=O)N2CCN(c3ccc(C(C)=O)cc3)CC2)cc1,0,-2%,-2%,0.6,-4%,-1%,-2%
CN(CC(=O)Nc1ccc(F)cc1[N+](=O)[O-])C1CCS(=O)(=O)C1 (stereo not given),1,-3%,2%,-0.2,7%,1%,4%
COc1ccc(F)cc1-c1cc(NC=O)c2ncc(-c3cccc(C(F)(F)F)c3)n2c1,1,1%,·,-11,-25%,-5%,-14%
CC1(C(=O)NS(=O)(=O)C2CC2)CCCN(C(=O)c2ccccc2OC(F)(F)F)C1 (stereo not given),0,1%,·,-0.6,7%,-3%,-3%

Part of the list above in order of SMILES length, largest number first.
molecule,PI5P4Ka inh,PLK1 PBD inh,Mm-Cpn inhibitor,CCT chaperon mod,EPAC1 ag,EPAC2 antag,EPAC1 antagonist
COc1cc(/C=C/C(=O)OCC(=O)N2CCN(S(=O)(=O)c3ccc(C)cc3C)CC2)ccc1O,-14,-1%,-6%,-1.1,0%,3%,-15%
CC1(C(=O)NS(=O)(=O)C2CC2)CCCN(C(=O)c2ccccc2OC(F)(F)F)C1 (stereo not given),0,1%,·,-0.6,7%,-3%,-3%
COc1ccc(F)cc1-c1cc(NC=O)c2ncc(-c3cccc(C(F)(F)F)c3)n2c1,1,1%,·,-11,-25%,-5%,-14%
COc1cc(C2C3=C(Nc4nc(N)[nH]c(=O)c42)c2ccccc2C3=O)ccc1O (stereo not given),-71*,-7%,0%,-2.7,9%,-2%,-20%
CN(CC(=O)Nc1ccc(F)cc1[N+](=O)[O-])C1CCS(=O)(=O)C1 (stereo not given),1,-3%,2%,-0.2,7%,1%,4%
O=S(=O)(c1ccc2ccccc2c1)N1CCN(C2Cc3ccccc3C2)CC1,10,0%,-4%,0.6,8%,24%,-2%
CC(C)C1Cc2c(sc(NC(=S)NC(=O)c3ccccc3)c2C#N)CO1 (stereo not given),4,24µM*,0%,-1.2,-3%,16%,5%
C=CCn1c(SCC(N)=O)nc2scc(-c3ccc(C)o3)c2c1=O,5,-24%,-2%,0.0,3%,0%,-21%
Cn1nccc1C(=O)NC(=S)Nc1sc2c(c1C#N)CCCCC2,2,?,-3%,-15,6%,0%,2%
CCCCOc1ccc(C(=O)OCC(=O)N2CCCCCC2)cc1,0,2%,1%,-0.8,-3%,9%,-4%
O=C(Nc1ccc2c(c1)OCO2)c1noc2c1CCCCC2,·,3%,0%,1.9,9%,-2%,-1%
O=C(CSc1ccc(-c2ccco2)nn1)Nc1ccccc1,-27,-25%,0%,-0.7,11%,1%,-6%
O=C(Nc1nc2ccccc2[nH]1)c1ccccc1,1,-3%,-2%,1.0,0%,4%,0%
CCOc1ccc(C(=O)CCN2CCCCCC2)cc1,-1,11µM*,0%,1.3,-1%,-4%[57.1 µM],5%
CCC(=O)c1ccc(OCCN2CCOCC2)cc1,1,-1%,1%,1.2,7%,-2%,1%

Not all compounds are listed, so the mix of outcomes need not match the whole.
